# Screening results: PubChem, National Center for Advancing Translational Sciences (NCATS)
# PINK1 modulator – PINK1 expression modulation; PINK1 immunofluorescence, high-content cytometry, 24 h; Potency, µM (doses to about 76.6 µM), for inactives: top-dose activation (PINK1 increase), hits mostly activators; 0.2% of 410,000 active; AID 624263; active = well fitted activation curve with a large enough effect; inconclusive = small, poorly fitted or top-dose-only effect; inactive = flat fitted curve, though single readings scatter; cell line not stated here;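 also: potency is read from the fitted curve at half-maximal effect; % of control where 0% means no effect; nearly all actives have a fitted effect of over 65% in size; a mitochondrial uncoupler was the plate control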
#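 PINK1 protein level read as immunofluorescence by microplate cytometer in a fixed, stained stable cell line after 24 h exposure to five compound concentrations, with CCCP as control.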
# D2 ag – agonists of human D2 dopamine receptor (beta-arrestin). P14416. DiscoveRx PathHunter D2 beta-arrestin, luminescence, 90 min; 100% = 57 uM dopamine signal. activation, % (no concentration beside the values). 0.084% of 360,000 active. AID 624465; in the data active = activation above about 40%; inconclusive = about 15% to 40%; inactive = below about 15%; also: compound concentration not given in the record; the text of the record calls up to 30% inactive
#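 DiscoveRx PathHunter D2 beta-arrestin cells (2,100/well) attached overnight, then compound-stimulated 90 min at 37 C in HBSS/10 mM HEPES/0.1% Tween-20 buffer; beta-galactosidase complementation read by luminescence after 1 h at ambient temperature. Dopamine 57 uM final (EC100) as control.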
# TRPML1 blocker – inhibitors of human TRPML1 channel; AID 624415; activity change, negative = inhibition, % (test concentration not listed); TRPML1-inducible cells, Ca2+ dye fluorescence, FDSS; active compounds read low; inhibition of EC80 agonist-evoked calcium signal; Q9GZU1; 0.02% of 390,000 active; in the data active means activity change below about -50%; inconclusive means about -30% to -50%; inactive means above about -30%;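 also: stimulus is agonist 54-4 at its EC80 concentration; % is scaled to controls: 0 for no effect and ±100 for the full control effect; compound concentration not given in the record; the text of the record puts the active cut at -80%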
#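 TRPML1-DL cells, Tet-induced overnight (~16 h, 37 °C) at 1,500 cells/well, were loaded with Ca8 no-wash dye plus quencher for 45-90 min at room temperature. Compounds were pinned during FDSS kinetic reading; agonist 54-4 at EC80 (4 uM final) then added.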
# CtBP-E1A inh – inhibitors of CtBP/E1A interaction; AlphaScreen GST-E1A/His-CtBP binding, 1536-well; active compounds read low; control for the full effect not named in the record; activity change, % (no concentration beside the values); 0.49% of 340,000 active; AID 651724; in the data active means activity change below about -65%; inconclusive means about -30% to -65%; inactive means above about -30%; also: % is scaled to controls: 0 for no effect and ±100 for the full control effect
#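 In 5 uL wells, 23 nL compound meets equimolar GST-E1A and His-CtBP (5X stock 125 nM each) for 2 h, 37 °C. Beads (5X, 50 ug/mL) then 1 h, 37 °C, dark.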
# TRPML1 ag – human mucolipin-1 channel agonism; TRPML1-expressing cells, Ca2+ dye fluorescence, FDSS; host cell line not named in the record; reference of the full effect not given here; activation, % (no concentration beside the values); 0.12% of 410,000 active; in the data active = activation above about 50%; inconclusive = about 30% to 50%; inactive = below about 30%; also: 0% is about no effect; the text of the record puts the active cut at 80%
#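 Tetracycline-induced TRPML1-DL cells are seeded and incubated overnight before loading with a no-wash Ca2+ dye and quencher. Agonist activity is taken from the 110 s fluorescence read following compound pin-transfer on an FDSS, before EC80 54-4 challenge.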
# Six1-Eya2 inh – Six1/Eya2 interaction inhibition | Q15475+O00167 | AlphaScreen GST-Six1/His-Eya2 binding, biochemical; active compounds read low; control for the full effect not named in the record | activity change, % (no concentration beside the values) | 0.56% of 360,000 active | AID 651725; in the data active = activity change below about -65%; inconclusive = about -30% to -65%; inactive = above about -30%; also: % is scaled to controls: 0 for no effect and ±100 for the full control effect
# Target sequence (O00167 whole entry, looked up): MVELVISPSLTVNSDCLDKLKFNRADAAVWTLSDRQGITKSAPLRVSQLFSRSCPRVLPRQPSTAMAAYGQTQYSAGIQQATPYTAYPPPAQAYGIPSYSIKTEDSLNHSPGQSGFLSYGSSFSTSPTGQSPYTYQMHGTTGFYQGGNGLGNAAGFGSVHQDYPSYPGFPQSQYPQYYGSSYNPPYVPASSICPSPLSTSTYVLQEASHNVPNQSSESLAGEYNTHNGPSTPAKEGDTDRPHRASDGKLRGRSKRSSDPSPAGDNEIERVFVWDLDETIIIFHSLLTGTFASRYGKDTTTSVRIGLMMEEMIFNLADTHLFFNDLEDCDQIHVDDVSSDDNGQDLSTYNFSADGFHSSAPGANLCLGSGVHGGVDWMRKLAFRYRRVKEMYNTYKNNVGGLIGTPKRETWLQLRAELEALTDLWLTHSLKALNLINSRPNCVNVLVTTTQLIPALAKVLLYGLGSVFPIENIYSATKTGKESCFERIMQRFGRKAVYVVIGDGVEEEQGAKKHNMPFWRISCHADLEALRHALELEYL
# Target sequence (Q15475 whole entry, looked up): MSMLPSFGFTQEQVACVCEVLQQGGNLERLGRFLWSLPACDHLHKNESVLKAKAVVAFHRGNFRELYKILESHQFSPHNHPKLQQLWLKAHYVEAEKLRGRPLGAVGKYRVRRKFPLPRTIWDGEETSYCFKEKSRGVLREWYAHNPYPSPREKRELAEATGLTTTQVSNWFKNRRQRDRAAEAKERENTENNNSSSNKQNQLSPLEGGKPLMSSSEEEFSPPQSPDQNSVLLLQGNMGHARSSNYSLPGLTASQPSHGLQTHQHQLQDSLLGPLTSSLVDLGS
#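 AlphaScreen luminescence read after one hour at 37 °C in darkness. Pin-transferred compounds met GST-Six1 and His-Eya2 protein (5X stock 250 nM/500 nM) plus glutathione donor and Ni-chelate acceptor beads (5X, 50 ug/mL).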
# * hit, by the source's call; ? = inconclusive; / = no result given; [ ] = remark or other dose.
SMILES,PINK1 modulator,D2 ag,TRPML1 blocker,CtBP-E1A inh,TRPML1 ag,Six1-Eya2 inh
N#Cc1c(-c2ccccc2Cl)cc(-c2ccccc2)nc1Br,23.3%,-0.9,42.6,19.8,0.1,31.5
CC(C)(C)n1nnnc1CN(Cc1cccnc1)Cc1ccccc1Cl,0.3%,-1.0,-12.2,2.7,-1.2,0.1
CC(=O)CCc1ccc(OCCCCn2cncn2)cc1,-0.5%,-1.5,37.0,-2.0,0.8,5.9
CCOC(=O)c1ccc2c(c1)nc(SCC(=O)c1cc3ccccc3o1)n2CC,-1.4%,-2.3,11.4,-8.5,-0.6,-7.1
O=S(=O)(c1ccc(Br)cc1)N1CCN=C1SCc1cccnc1,0.0%,-4.5,-10.9,/,0.8,6.0
CCOc1ccc(N2C(N)=NC(N)=NC2(C)C)cc1,-1.1%,-0.9,-2.2,-3.0,0.2,-1.6
N#Cc1cc(C(=O)c2cc(Br)ccc2O)cn(C2CCCCC2)c1=O,22.4µM*,0.9,5.4,2.4,1.4,-6.8
Cc1ccc(S(=O)(=O)N(C)C)cc1NC(=O)CN1CCCC1,-0.3%,2.9,6.6,-4.0,0.5,6.8
CC(C)N(C(=O)NC(=O)Nc1ccccn1)S(C)(=O)=O,3.4%,-2.4,-0.3,-9.8,-0.3,-0.4
Cc1ccc(NC(=O)Nc2cc3c(cc2N2CCCCC2)n(C)c(=O)n3C)cc1Cl,1.4%,/,-13.8,/,0.1,/
CC(=O)c1ccc(NS(=O)(=O)c2ccc3c(c2)CCC(=O)N3)cc1,-1.9%,-3.1,-24.0,2.1,-0.2,-6.9
C[C@@H](NC(=O)C1(c2ccccc2)CCN(C(=O)OC(C)(C)C)CC1)C(=O)N[C@@H](C(=O)O)c1ccccc1,-0.9%,-3.7,/,3.5,/,2.3

# A few values from the entries so far.
# In D2 ag, Cc1ccc(S(=O)(=O)N(C)C)cc1NC(=O)CN1CCCC1 is entered as 2.9
# In CtBP-E1A inh, N#Cc1cc(C(=O)c2cc(Br)ccc2O)cn(C2CCCCC2)c1=O is entered as 2.4

# Next part:
SMILES,PINK1 modulator,D2 ag,TRPML1 blocker,CtBP-E1A inh,TRPML1 ag,Six1-Eya2 inh
COC(=O)C1=C(C)Nc2ncnn2C1c1ccco1 (configuration not stated),-0.2%,-0.7,10.3,3.9,-0.2,-1.3
Cc1nn(CC(=O)Nc2ccc(C(C)C)cc2)c(=O)c2c(C)n(-c3ccc(Cl)cc3)nc12,0.6%,/,-4.5,/,-0.3,/
COC(=O)[C@@]1(Cc2ccc(F)cc2)[C@H]2c3cc(C(=O)N4CCCC4)n(CCSCCO)c3C[C@H]2CN1C(=O)c1ccccc1,0.1%,/,/,0.0,3.0,-1.3
COc1cc(Cl)c(S(=O)(=O)NCc2ccccn2)cc1Cl,17.3%[38.3 µM],-0.4,7.0,5.5,-0.2,-0.5
Cc1ccc(C2(CCNCc3ccc(N(C)C)cc3)CCOC(C(C)C)C2)cc1 (configuration not stated),-2.2%,2.2,7.7,?,1.1,?
O=C(c1cccc(N2C(=O)C3C4C=CC(C4)C3C2=O)c1)N1CCN(c2ccccc2Cl)CC1 (configuration not stated),-0.1%,3.1,10.3,/,-0.3,-3.6
CCOC(=O)c1ccc(N=Nc2c(C)c(C#N)c(O)[nH]c2=O)cc1,15.0%,-0.3,0.4,-25.5,-0.9,-10.2
COc1cccc(C(=O)Nc2nnc(-c3ccc(OC)cc3OC)s2)c1,9.4%,-0.5,-11.0,-7.5,0.3,4.9
CC(=O)N1c2ccc(S(=O)(=O)NCC3CCC(C(=O)NCCC(C)C)CC3)cc2CC1C (configuration not stated),0.9%,/,9.7,/,-0.5,/
CC1Cc2ccccc2N1C1=NS(=O)(=O)c2ccccc21 (configuration not stated),?,-1.2,3.8,0.0,-0.1,0.1
CCC(NC(=O)c1ccccc1NC(=O)c1ccccc1)C(=O)O (configuration not stated),/,-0.9,-7.6,9.0,0.3,0.0
COC(=O)CSc1nc2cc(Cl)ccc2c(=O)n1C1CCCC1,-0.1%,-3.2,6.8,10.1,0.0,5.0
Cc1ccc(N2CC(NC(=O)C(=O)c3c[nH]c4ccccc34)CC2=O)cc1 (configuration not stated),-0.8%,/,-16.4,/,1.5,/
COCCCNC(=S)N1CCN(S(C)(=O)=O)CC1,-1.9%,-1.3,-8.5,2.0,0.4,8.7
COc1ccc2c(c1)-c1nc(/N=C/c3ccc(O)c(OC)c3)sc1CC2,-1.7%,?,11.0,-14.3,3.7,-26.8
CCCCN(C)c1c(C)nc2ccc(C(=O)NCCOc3ccc(OC)cc3)cn12,0.1%,4.5,26.3,-8.3,-0.5,-14.5
Cc1ccc(S(=O)(=O)N(C)C)cc1NC(=O)COc1ccccc1C(=O)Nc1ccccc1,2.0%,1.0,11.5,0.3,0.3,-12.2
O=C(CN(c1ccc2c(c1)OCCO2)S(=O)(=O)c1ccccc1)NCc1ccc(Cl)cc1,1.5%,-6.7,6.9,17.9,0.7,-3.9
Oc1[nH]c(=S)sc1/C=C1\C(c2ccccc2)=Nc2ccccc21,2.2%,-0.4,-1.9,-20.8,18.9,-13.9
O=C(NCc1ccc2c(c1)CCN2C(=O)c1ccncc1)c1cccc(Cl)c1,1.4%,/,-9.7,/,0.1,/
COc1ccc(NC(=O)CNC(=O)Cc2cccc3ccccc23)cc1,0.0%,1.3,-1.6,4.9,-0.4,1.6
O=C(CCc1ccc(Oc2cc([N+](=O)[O-])cc([N+](=O)[O-])c2)cc1)NC1CCCC1,2.9%,?,27.0,/,1.9,-5.4
Cc1ccc(S(=O)(=O)N2CCCOC2CNC(=O)C(=O)NCCN2CCOCC2)cc1 (configuration not stated),0.4%,-2.4,14.0,-6.0,1.2,23.9
Nc1nc(N)c2sc3nc4c(cc3c2n1)CCC4,-3.1%,-1.8,33.1,-84.0*,0.7,-76.3*
Clc1ccc(CO/N=C2\CCCc3nonc32)cc1,3.9%,-3.3,4.3,3.8,2.1,43.8
Cn1c(SCC(=O)N2CCOCC2)ncc(C(=O)Nc2ccccc2)c1=O,-1.0%,/,-9.4,/,0.4,/
CN1CCN(C(=O)NCC23CC4CC(CC(C4)C2)C3)CC1,-0.9%,-2.6,16.0,/,0.8,2.4
CC(C)(C)C(=O)OCC1OC(n2cnc(C(N)=O)n2)C(O)C1O (configuration not stated),0.7%[38.3 µM],0.2,-11.5,11.4,0.6,-0.8
O=S(=O)(c1ccc(SCCOc2ccccc2Cl)nc1)N1CCCC1,-0.8%,-6.8,-8.1,27.1,1.2,15.5
CCOC(=O)CSc1nc2sc(C)c(C)c2c(=O)n1N,7.3%,-5.3,-8.8,-1.0,2.3,6.6
Cc1ccc(C)c(S(=O)(=O)N2CCCOC2CNC(=O)C(=O)NCCCN2CCOCC2)c1 (configuration not stated),-0.2%,-5.1,7.2,-4.3,0.5,7.8
COc1ccccc1C(C#N)N1N=C(C)CC1c1ccccc1 (configuration not stated),1.6%,0.4,40.3,/,-0.4,7.3
Cc1cc(C)c(C(=O)COC(=O)C2CCN(c3ccc(C(F)(F)F)cn3)CC2)c(C)c1,6.9%,?,-4.2,/,4.2,15.1
COc1cccc(CNC(=O)CCCn2ncn3c(cc4occc43)c2=O)c1OC,0.1%,/,2.5,/,0.0,/
Cc1nn(-c2ccccc2)c2c1N(CCCC(=O)NCc1ccc(OC(C)C)cc1)C(=O)CS2,2.3%,/,0.0,/,-0.3,/
CCC1CCCCN1S(=O)(=O)c1ccc(NC(=O)c2nc(S(C)(=O)=O)ncc2Cl)cc1 (configuration not stated),1.9%,-11.1,33.5,-1.6,2.6,-9.7
CCCN1C(=O)S/C(=C/c2ccc(N3CCOCC3)o2)C1=O,39.8µM*,-3.4,-7.3,-0.8,10.6,2.5
CCCc1nnc(NC(=O)CCC(=O)NCc2ccccc2Cl)s1,-2.4%,-5.8,0.3,/,-0.9,-1.5
COc1ccc(NC(=O)c2cc3nc(-c4ccc(Cl)c(Cl)c4)cc(C(F)(F)F)n3n2)c(OC)c1,-0.7%,/,1.6,/,0.3,/
CC(=O)CC1c2ccccc2C=C(c2ccsc2)N1c1ccc(-c2cccs2)cc1 (configuration not stated),3.5%,/,/,9.7,-0.5,16.0
COc1ccc(OCCC(=O)OCC(=O)NCc2ccccc2)cc1,3.6%,-3.9,21.3,9.2,-0.7,-3.8
COC(=O)c1ccc(CSc2nc3ccc(Cl)cc3[nH]2)o1,7.3%,?,-11.3,-17.8,2.1,0.0
Cn1cc(SCC(=O)Nc2nc3ccccc3s2)c2ccccc21,10.7%,-5.7,43.7,-2.1,0.9,-13.5
COc1ccc(COC(=O)CNC(=O)C2CCCCC2)cc1F,0.9%,-1.1,0.6,-1.4,0.1,5.1
Cc1noc(C)c1S(=O)(=O)NCc1cccc(Cl)c1,-1.2%,-4.0,-6.9,/,-0.3,14.0
COc1cc(C)ccc1OCCOCCOc1cc(C)c(C)cc1Br,9.7%,-4.0,2.8,13.7,2.1,16.4
CCCCC(NC(C)=O)c1nc2ccccc2n1CCC (configuration not stated),4.0%,-2.6,1.2,0.4,-0.3,3.0
COC(=O)C1=C(NC(=O)c2cccc(OC)c2)CCS1,-0.1%[38.3 µM],-4.0,-9.7,10.7,1.9,0.0
CN(CCCN1CCOCC1)Cc1cn(C)nc1-c1ccccc1F,0.6%,-2.2,-4.3,19.0,-0.7,-6.9
CCN1CCN(c2ccc(S(=O)(=O)N3CCOCC3)cc2NC(=O)/C=C/c2ccc(OC)c(OC)c2)CC1,-1.6%,1.1,5.8,2.7,3.9,-4.3
Cc1csc(NC(=O)CSc2nnc(NC(=O)NC(C)(C)C)s2)n1,-0.5%,-1.6,0.2,-5.8,-0.1,1.2
COc1ccc(/C(C)=N/NC(=S)Nc2cc(C)ccc2C)cc1,0.2%,6.7,53.0,-23.0,2.0,-1.5
CCN(CC(=O)Nc1c(F)cccc1F)C(=O)C1CCC1,-1.7%,0.0,-8.0,0.0,-0.6,9.9
CC1=NN(Cc2ccccc2)C(=O)/C1=C/c1ccc(N(C)C)cc1,6.0%[38.3 µM],-1.2,18.8,2.6,2.0,3.4
Cc1cc(NC(=O)CN2CCN(c3ncccn3)CC2)no1,/,2.9,-5.6,-4.3,0.7,4.6
Cc1cc2oc(=O)cc(-c3ccccc3)c2c(C)c1-c1ccc(CO)cc1,0.1%,0.3,-9.3,1.0,-0.4,-9.3
O=Cc1c(NCc2cccc(F)c2)c2ccccc2[nH]c1=O,1.4%,-1.0,1.2,2.3,0.0,-7.6
Cc1cc(NC(=O)CSc2nnc(-c3ccc(S(=O)(=O)N4CCCC4)cc3)n2C)no1,?,-0.9,-0.1,11.8,-0.3,1.7
COC(=O)c1ccccc1NC(=O)CSc1nnnn1-c1ccc(C)cc1C,7.1%,-1.3,63.4,12.9,0.9,-3.5
CCOC(=O)N1CCC(NC(=O)c2ccc3c(c2)N(Cc2ccc(F)cc2)C(=O)c2ccccc2S3=O)CC1 (configuration not stated),2.6%,/,19.8,/,0.3,/
Nc1ccc2nc(CCCO)[nH]c2c1,0.8%,-0.2,17.0,/,-0.7,-3.2
